Bioassay records as filed in PubChem.
Rango release inh = qHTS Assay for Inhibitors of RanGTP induced Rango (Ran-regulated importin-beta cargo) - Importin beta complex dissociation | Biochemical FRET Rango-importin beta, RanGTP-induced dissociation | Potency, µM (top dose mostly 46.1 µM), without a hit: at the highest dose activity change, negative = inhibition | AID 540253, 2011 | Snurportin-1 (Homo sapiens) + GTP-binding nuclear protein Ran (Homo sapiens) + Importin … | actives 0.071% (n = 340,000); active means falling FRET ratio curve, often poorly fitted, with flat reads before Ran was added; inconclusive means other falling curves, or compound fluorescence or quenching; inactive means flat or rising ratio curve;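 note: potency is the fitted concentration of half-maximal effect; % of control where 0% means no effect; nearly all actives have a fitted effect of over 45% in size; -100% = wells without RanGTP and RCC1; the record marks most hits as doubtful in a second field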
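FRET read at 45 min, room temperature: inhibitors block the CFP/YFP signal rise when RanGTP (0.6 uM Ran, 2 mM GTP, 0.2 uM RCC1) frees Rango (0.1 uM) from importin beta (0.25 uM). Pre-read after 5 min compound exposure flags interference.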
miR-21 reporter = qHTS Assay for Modulators of miRNAs and/orActivators of miR-21; HeLa miR-21 FLuc reporter, luciferase, 48 h; Potency, µM (titrated, usually from 38.3 µM), without a hit: at the top dose reporter change, positive = more light; 340,000 tested, under 10 active; AID 2288, 2010; active = well fitted rising curve with a large enough effect; inconclusive = small, poorly fitted or top-dose-only effect; inactive = no such curve, though single readings can be large or run the other way;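 note: % of control where 0% means no effect; miR-21 action dims this reporter so a rising signal means less miR-21 action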
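Luminescence from a firefly luciferase reporter carrying a miR-21 binding site downstream, stably expressed under a CMV promoter in HeLa cells that make miR-21 endogenously, reports miRNA modulation after 48 h compound exposure up to approximately 40uM final.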
GLA inh pH 4.5 = qHTS Assay for Inhibitors of Human alpha-Galactosidase at pH 4.5; activity change, negative = inhibition, % at 105 µM; AID 1467, 2008; 230,000 tested, under 10 active; Alpha-galactosidase A (Homo sapiens), P06280; purified enzyme, 4-MU-alpha-Gal fluorescence, pH 4.5; inconclusive = small, poorly fitted or top-dose-only inhibition, or a rising curve; inactive = flat fitted curve, though single readings scatter; no compound was filed as active;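 note: 0% = full activity with enzyme and -100% = basal without enzyme; dose as in the result columns while the protocol names 77 µM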
Target sequence (P06280 whole entry, looked up): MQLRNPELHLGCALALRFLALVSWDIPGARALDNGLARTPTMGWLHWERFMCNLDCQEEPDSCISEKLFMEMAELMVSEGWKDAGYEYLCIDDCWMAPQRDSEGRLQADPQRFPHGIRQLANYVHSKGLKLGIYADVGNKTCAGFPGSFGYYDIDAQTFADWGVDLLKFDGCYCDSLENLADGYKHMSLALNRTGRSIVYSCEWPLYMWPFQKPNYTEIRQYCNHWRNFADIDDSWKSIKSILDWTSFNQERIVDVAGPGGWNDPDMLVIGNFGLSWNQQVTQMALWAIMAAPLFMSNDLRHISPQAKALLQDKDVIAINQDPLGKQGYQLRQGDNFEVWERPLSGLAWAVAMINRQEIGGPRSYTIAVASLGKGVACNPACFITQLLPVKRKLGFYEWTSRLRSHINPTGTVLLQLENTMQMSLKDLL
Rango-impB inh = qHTS Assay for Inhibitors of Rango (Ran-regulated importin-beta cargo) - Importin beta complex formation; Importin subunit beta-1 (Homo sapiens), Q14974; Rango CFP/YFP FRET sensor + importin beta, 45 min; Potency, µM (series often up to 92.2 µM), for inactives: top-dose inhibition of complex formation; actives 0.031% (n = 340,000); AID 540263, 2011; active = rising FRET ratio curve, often small or poorly fitted; inconclusive = mostly compound fluorescence or quenching in the first reads; inactive = flat curves in all reads;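 note: potency is the fitted concentration of half-maximal effect; 0% = DMSO wells and 100% = buffer wells lacking importin beta; nearly all actives have a fitted effect of over 15% in size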
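FRET biosensor Rango (snurportin 1 IBB between N-terminal EYFP and C-terminal Cerulean), 50 nM in PBS/1 mM DTT/0.02% Tween-20/0.1% BSA, preincubated 5 min RT with compound; 0.125 microM importin beta added, 45 min RT, CFP/YFP FRET ratio read.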
The depositor's hits bear a star; ? = inconclusive; · = not tested or not shown; & = joins results of further samples; [ ] = another dose, or the depositor's remark. This is a subset. The share of hits here may be higher or lower than overall.

| Rango release inh | miR-21 reporter | GLA inh pH 4.5 | Structure | Rango-impB inh |
| --- | --- | --- | --- | --- |
| -7% | -2% | · | CCN(c1ccccc1)S(=O)(=O)c1ccc(C(=O)N(CCCN(C)C)c2nc3cc4c(cc3s2)OCO4)cc1 | 2.0% |
| ? | 1% | 12 | COC(=O)C1=CN(C(C)C)C=C(C(=O)OC)C1c1cc2c(cc1Br)OCO2 | ? |
| -4% | ? | -16 | N#C/C(=C\c1cccs1)C(=O)c1ccccc1Cl | -3.1% |
| 5% | 1% | -7 | CC(=O)Oc1ccccc1N1C(=O)c2ccc(C(=O)O)cc2C1=O | -3.4% |
| -14% | -10% | 0 | Cc1ccc(-c2n[nH]c(=S)n2/N=C/c2cc3c(cc2[N+](=O)[O-])OCO3)cc1 | 1.5% |
| -8% | 4% | 2 | Cc1ccccc1NC(=O)C(=O)NCCc1c[nH]c2ccccc12 | -1.6% |
| 0% | -72% | -2 | CCOC(=O)c1c(C)oc2c1c(CN1CCN(C(=O)OCC)CC1)c(O)c1ccccc12 | 2.8% |
| 1% | -9% | · | COc1ccc(-c2cc(C(=O)NC3CCCC3)c3ccccc3n2)cc1 | -0.1% |
| 27% | 5% | 0 | CC(C(=O)O)n1ncc2ccccc2c1=O (configuration not stated) | -0.1% |
| 11% | -7% | 0 | COc1ccc(OCc2nnnn2-c2ccccc2)cc1 | -0.7% |
| -13% | 0% | -3 | Cc1ccc(NC(=O)C2CC(=O)Nc3nc4ccccc4n32)c(C)c1 (configuration not stated) | -0.3% |
| 9% | -1% | 2 | CCn1ncc([C@@H]2C[C@H]3CN(Cc4cccc(Cl)c4)C(=O)[C@]34CCCN24)c1C | -1.9% |
| -4% | -3% | 5 | Cc1ccc(S(=O)(=O)N2CCN(Cc3nc4sc(C)c(C)c4c(=O)[nH]3)CC2)cc1 | 1.8% |
| 10% | -6% | -12 | COC(=O)C1=C(C)N(C2CCCC2)C(=O)C1(NC(C)=O)C(F)(F)F (configuration not stated) | -3.7% |
| 12% | 2% | -5 | O=C1CCCC2=C1C(c1ccccc1O)C1=C(CCCC1=O)O2 | 5.6% |

Reformatted in markdown: 12 of the compounds above
| mol | Rango release inh | miR-21 reporter | GLA inh pH 4.5 | Rango-impB inh |
| --- | --- | --- | --- | --- |
| CC(=O)Oc1ccccc1N1C(=O)c2ccc(C(=O)O)cc2C1=O | 5% | 1% | -7 | -3.4% |
| Cc1ccc(-c2n[nH]c(=S)n2/N=C/c2cc3c(cc2[N+](=O)[O-])OCO3)cc1 | -14% | -10% | 0 | 1.5% |
| Cc1ccccc1NC(=O)C(=O)NCCc1c[nH]c2ccccc12 | -8% | 4% | 2 | -1.6% |
| CCOC(=O)c1c(C)oc2c1c(CN1CCN(C(=O)OCC)CC1)c(O)c1ccccc12 | 0% | -72% | -2 | 2.8% |
| COc1ccc(-c2cc(C(=O)NC3CCCC3)c3ccccc3n2)cc1 | 1% | -9% | · | -0.1% |
| CC(C(=O)O)n1ncc2ccccc2c1=O (configuration not stated) | 27% | 5% | 0 | -0.1% |
| COc1ccc(OCc2nnnn2-c2ccccc2)cc1 | 11% | -7% | 0 | -0.7% |
| Cc1ccc(NC(=O)C2CC(=O)Nc3nc4ccccc4n32)c(C)c1 (configuration not stated) | -13% | 0% | -3 | -0.3% |
| CCn1ncc([C@@H]2C[C@H]3CN(Cc4cccc(Cl)c4)C(=O)[C@]34CCCN24)c1C | 9% | -1% | 2 | -1.9% |
| Cc1ccc(S(=O)(=O)N2CCN(Cc3nc4sc(C)c(C)c4c(=O)[nH]3)CC2)cc1 | -4% | -3% | 5 | 1.8% |
| COC(=O)C1=C(C)N(C2CCCC2)C(=O)C1(NC(C)=O)C(F)(F)F (configuration not stated) | 10% | -6% | -12 | -3.7% |
| O=C1CCCC2=C1C(c1ccccc1O)C1=C(CCCC1=O)O2 | 12% | 2% | -5 | 5.6% |

The list goes on:
| Rango release inh | miR-21 reporter | GLA inh pH 4.5 | Structure | Rango-impB inh |
| --- | --- | --- | --- | --- |
| 14% | 25% | 3 | C/C(=N/NC(=O)CNC(=O)Cc1ccc(Cl)cc1)c1ccco1 | -0.6% |
| -12% | -3% | -6 | CCN(CC)S(=O)(=O)c1cccc(NC(=O)COC(=O)c2cc(C)oc2C)c1 | -1.0% |
| 0% | 1% | -1 | Cc1ccccc1NC(=O)N1CCC(C(=O)c2ccc(F)cc2)CC1 | -4.4% |
| 17% | -13% | -13 | O=C(Cn1c(NCCO)nc2ccccc21)c1ccco1 | -4.4% |
| 2% | -4% | -11 | Cc1ccc(NC(=O)C(OC(=O)c2cc(C)oc2C)c2ccccc2)cc1 (configuration not stated) | 0.8% |
| -9% | 0%&2% | 2[21.1 µM] | COc1ccc(CN2C(=O)c3ccccc3C2C(=O)NCCc2ccccc2)c(OC)c1 (configuration not stated) | 0.4% |
| -2% | · | · | CCN1CCN(C(=O)c2ccc(Cl)c(S(=O)(=O)N(C)c3ccccc3)c2)CC1 | -0.3% |
| -3% | -1% | · | Cc1ccc(S(=O)(=O)N2CCOCC2)s1 | -1.7% |
| 22% | -14% | -10 | O=C(O/N=C\c1ccc(N2CCOCC2)c([N+](=O)[O-])c1)c1ccccc1Cl | 0.4% |
| -9% | -67% | -8 | c1ccc(CSc2nnc(-c3ccco3)o2)cc1 | -4.7% |
| 0% | 20% | -9 | CCOc1cc2c(cc1C(C)(C)C)NC(=O)CS2 | 3.2% |
| -17% | · | · | O=C(CCC(=O)c1cccs1)NNC(=O)c1cccc(Cl)c1 | 5.3% |
| 11% | 0% | · | CN(C)S(=O)(=O)c1cccc(C(=O)NCCOC(=O)c2cc(F)c(F)cc2Cl)c1 | -3.6% |
| 14% | -7% | -1 | CCS(=O)(=O)N1CCC(C(=O)NCCCN2CCC(Cc3ccccc3)CC2)CC1 | -4.8% |
| 5% | 1% | -12 | Cc1ccc(C)c(NC(=S)NC2CC3CCCC(C2)N3CC(C)C)c1 (configuration not stated) | -0.4% |
| 13% | -3% | · | Fc1ccc(-c2n[nH]c(=S)n2Cc2ccccc2)cc1 | 5.4% |
| 2% | -46% | -2 | CC(C)n1c(-c2ccc(N(C)C)cc2)nc2ccccc21 | -3.2% |
| -1% | 8% | -8 | Fc1ccc(Oc2nc(-c3ccccn3)nc3ccccc23)cc1 | 3.2% |
| -7% | -9% | 2 | CC(C)CCNC(=O)CCCn1c(=O)[nH]c2ccc(Br)cc2c1=O | -1.5% |
| 0% | -2% | · | O=C(Cn1c2ccc(F)cc2c2nc3n(c(=O)c21)CCS3)NCC1CCCO1 (configuration not stated) | -0.3% |
| ? | -5% | 4 | Cc1cccc(N=C/C(C(=O)C(F)(F)F)=C(\O)c2ccco2)c1 | ? |
| 11% | -56% | -17 | Fc1ccc(-c2cnc(-c3cccs3)o2)cc1 | ? |
| -5% | 2% | · | O=C(CN1CCN(C(=O)N2CCOCC2)CC1)Nc1cc(Cl)ccc1Cl | 0.0% |
| -22% | 4% | · | CCn1c(=O)c2sccc2n2c(CCCC(=O)NCc3cccnc3)nnc12 | 8.0% |
| 7% | 0% | -3 | O=C1NC(=O)/C(=C\c2ccccc2OCc2ccccc2)S1 | -2.5% |
| -9% | -6% | · | CSCC[C@@H](CO)NC(=O)c1ccc2nc(C3CCCCC3)oc2c1 | -0.1% |
| 6% | -1% | · | COCCNc1c2c(nc3ccccc13)CCC2 | -1.8% |
| -16% | -13% | 3 | Cc1nc(-c2ccccc2)sc1C(=O)CSc1ccc(F)cc1 | -0.2% |
| -4% | -3% | 7 | CC(Oc1ccccc1)c1nnc(N)s1 (configuration not stated) | ? |
| -27% | · | · | Cc1cc(NC(=O)c2cc3ccccc3o2)no1 | ? |
| -9% | -2% | 0 | Cc1c(-n2cc(C(=O)O)c(=O)c3cc(F)c(N4CCCC4)c(F)c32)c(=O)n(-c2ccccc2)n1C | -1.4% |
| 8% | -8% | -2 | Cc1cc(C(=O)COC(=O)CCCN2C(=O)c3ccccc3C2=O)c(C)n1C | 2.8% |
| 0% | 25% | 9 | Cc1ccc(-n2c(SCC(N)=O)nc3c(c2=O)C2(CCCC2)Cc2ccccc2-3)cc1 | -1.6% |
| -13% | -19% | -1 | CCCNC(=O)NS(=O)(=O)c1cnccc1Sc1ccc(Cl)cc1 | 3.6% |
| 18% | · | -11 | COc1ccc(-c2ccccc2[C@H]2[C@@H]3C=CC[C@@H](C)[C@@H]3C(=O)N2Cc2ccccc2)cc1 | -1.8% |
| 1% | -4% | -12 | O=C(Nc1ccc(F)cc1)C(c1ccccc1)N1CCN(S(=O)(=O)c2c(F)cccc2F)CC1 (configuration not stated) | ? |
| 4% | · | · | COc1ccc(CC(=O)NC(=S)Nc2cccc(C)c2)cc1 | -1.3% |
| -23% | -9% | -4 | COc1ccc(Nc2nnc(Cc3ccc(Cl)cc3)c(=O)[nH]2)c(OC)c1 | -0.5% |
| -2% | 0%&-8% | · | COc1ccc(CCNC(=O)CN2C(=O)COc3ccc(S(=O)(=O)N4CCCC4)cc32)cc1OC | -2.0% |
| -1% | -6% | -1 | O=C(NCc1ccccc1)NC1(C(=O)N2CCN(c3ccccc3)CC2)CCCCC1 | 2.7% |
| -1% | -20% | 10 | CCCCNC(=S)NNC(=O)c1ccc(Br)o1 | -2.1% |
| 6% | -12% | -12 | CCOC(=O)C(=CNc1ccccc1C)C(=O)OCC | -1.0% |
| 2% | -19% | 0 | CCOC(=O)c1ccccc1NC(=O)C1COc2ccccc2O1 (configuration not stated) | 1.3% |
| -3% | · | · | CC(C)CCN(C(=O)CCCSc1nc2ccccc2[nH]1)c1c(N)n(Cc2ccccc2)c(=O)[nH]c1=O | ? |
| -2% | 2% | -4 | CC(C)CC(=O)Nc1ccnc(-c2ccncc2)n1 | -2.1% |
| -15% | -1% | 6 | O=C(CSc1nnc2c(n1)[nH]c1ccccc12)OCc1ccccc1 | 4.2% |
| -4% | -38% | -2 | COc1ccc(OCC(=O)O/N=C(\N)Cc2cccs2)cc1 | 6.8% |
| 17% | 1% | 7 | COc1ccc(NC(=O)Cc2ccc(Cl)cc2)cc1NC(=O)c1ccco1 | -2.6% |
| -1% | -11%&-2% | · | COc1ccccc1-c1cc(C(=O)N2CCN(c3ccccc3)CC2)no1 | 0.6% |
| -10% | -38% | 0 | COc1ccc(N2CCN(C(C)=C3C(=O)c4ccccc4C3=O)CC2)cc1 | -1.5% |
| -13% | -68% | -11 | Oc1ccc(-c2csc(Nc3ncccn3)n2)cc1O | 9.5% |
| 5% | · | · | O=S(=O)(NCC1COc2ccccc2O1)c1ccccc1F (configuration not stated) | 3.6% |
| 1% | -4% | -11 | CN1CCN(C(=O)C2=C[C@@H](c3ccc(Br)cc3)C[C@@H](OCc3ccc(CO)cc3)O2)CC1 | -1.7% |
| 1% | -1% | -10[21.1 µM] | Cc1ccc(Cn2c(O)c(N=NC(=S)Nc3ccccc3F)c3cc(S(=O)(=O)N4CCOCC4)ccc32)cc1 | 6.0% |
| 14% | · | · | Cn1c(N)c(C(=O)COC(=O)COc2cccc(Br)c2)c(=O)n(C)c1=O | -2.1% |
| -1% | -1% | 10 | CCN(C(=O)COC(=O)c1cc2ccccc2cc1O)C1CCS(=O)(=O)C1 (configuration not stated) | 3.2% |
| 12% | -32% | -2 | CCCCOc1ccc(-c2nc(-c3cccnc3)no2)cc1 | -4.1% |
| 15% | -2% | -3 | CSc1nc(C=Nc2ccccc2Cl)c(O)n1Cc1cccc(Cl)c1 | -4.7% |
| -9% | -2% | · | O=S(=O)(Cc1nnnn1-c1ccccc1)c1ccc(Cl)cc1 | 1.3% |
| 15% | 2% | · | O=C(C1CCOCC1)N1CCCC(N2CCN(c3ccc(F)cc3)CC2)C1 (configuration not stated) | 1.8% |
